# Screens as filed in PubChem BioAssay.
# Calb FLC: C. albicans growth modulation with fluconazole | 0.57% of 300,000 active | growth inhibition, % (test concentration not listed) | C. albicans CaCi-2 (fluconazole-resistant clinical isolate) + fluconazole, Alamar Blue growth, 48 h;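 active = most replicates above 75%; inconclusive = exactly half above 75%; inactive = most below 75%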;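 note: all wells also contain fluconazole at 8 µg/ml as a sub-toxic cotreatment; 0% = median of DMSO wells and 100% = median of geldanamycin control wells; wells of about 8 µL received 7.5 nL stock; the first replicate is given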
# HNF4A DNA FP: change in binding of human HNF4 alpha to DNA. P41235. HNF4a-FITC DNA binding, fluorescence polarization, 1 h. activity change, % at 10 µM. 0.3% of 360,000 active. AID 1224865; in the data active = activity change above about 30%, passing the limit was not always enough;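 note: controls were the assay level and a saturating level of protein; the project sought stronger binding though the title names inhibitors; some compounds called inactive have numbers as strong as hits; positive values seem to mean higher polarization but the record does not say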
# B2AR ag: human beta-2 adrenergic receptor agonism by FAP; response, % (no concentration beside the values); 0.43% of 340,000 active; Am2.2-beta2AR cells, FAP receptor internalization, flow cytometry; reference of the scale not given here; P07550;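 active = response above a set limit, near 3 SD of response in nonfluorescent compounds, cut at about 42% in these data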;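 note: stock transfer was 100 nL into about 11 µL; a reference agonist was the positive control; negative values mostly stem from fluorescent compounds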
# LANA-H2A inh: blocks KSHV LANA binding to histone H2A/H2B; Q9QR71; cell-free LANA-H2A/H2B peptide, fluorescence polarization; inhibition, % (no concentration beside the values); 0.6% of 320,000 active; AID 2629; in the data active = inhibition mostly above about 10%, no sharp cut-off; inactive = mostly below about 6.7%;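 note: stock transfer was 7.5 nL into about 10 µL; 0% = median of vehicle wells and 100% = median of positive control wells; one replicate is shown; the record names a cut of 25% in any replicate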
# Target sequence (Q9QR71 whole entry, looked up): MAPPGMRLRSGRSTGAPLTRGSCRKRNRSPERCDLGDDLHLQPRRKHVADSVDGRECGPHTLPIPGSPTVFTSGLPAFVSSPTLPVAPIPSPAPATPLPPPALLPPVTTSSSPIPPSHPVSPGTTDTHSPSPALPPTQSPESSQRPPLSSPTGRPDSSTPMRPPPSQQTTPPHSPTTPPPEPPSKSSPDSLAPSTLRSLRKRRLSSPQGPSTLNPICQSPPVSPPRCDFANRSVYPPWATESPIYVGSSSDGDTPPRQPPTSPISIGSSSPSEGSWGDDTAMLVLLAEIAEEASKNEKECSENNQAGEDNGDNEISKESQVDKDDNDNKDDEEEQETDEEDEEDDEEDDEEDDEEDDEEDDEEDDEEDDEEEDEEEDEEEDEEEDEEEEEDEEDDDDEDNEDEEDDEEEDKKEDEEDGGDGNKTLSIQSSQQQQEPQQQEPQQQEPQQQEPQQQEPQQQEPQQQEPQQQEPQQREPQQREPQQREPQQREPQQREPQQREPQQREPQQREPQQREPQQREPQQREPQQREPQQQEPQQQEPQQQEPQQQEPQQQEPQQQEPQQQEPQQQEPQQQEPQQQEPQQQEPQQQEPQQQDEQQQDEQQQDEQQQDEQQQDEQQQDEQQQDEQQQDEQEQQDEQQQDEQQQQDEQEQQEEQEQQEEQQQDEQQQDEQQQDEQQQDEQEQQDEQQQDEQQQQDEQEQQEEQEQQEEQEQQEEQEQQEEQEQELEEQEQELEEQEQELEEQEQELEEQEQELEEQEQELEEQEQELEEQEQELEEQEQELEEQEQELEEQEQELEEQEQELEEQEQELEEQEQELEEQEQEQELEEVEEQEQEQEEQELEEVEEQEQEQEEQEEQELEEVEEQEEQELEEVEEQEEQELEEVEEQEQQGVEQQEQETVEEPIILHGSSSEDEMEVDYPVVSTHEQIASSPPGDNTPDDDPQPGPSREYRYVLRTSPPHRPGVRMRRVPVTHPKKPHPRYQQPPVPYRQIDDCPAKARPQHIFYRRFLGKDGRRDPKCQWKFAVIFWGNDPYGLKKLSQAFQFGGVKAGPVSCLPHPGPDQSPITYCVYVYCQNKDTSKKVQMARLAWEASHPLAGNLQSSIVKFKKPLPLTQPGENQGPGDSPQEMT
# ALR H2O2 inh: blocks human ALR sulfhydryl oxidase activity; P55789; purified ALR, DTT oxidation, H2O2 HRP-luminol luminescence; inhibition, % (test concentration not listed); 3.8% of 290,000 active; AID 485317;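 active = mean and each replicate at 75% or more; inconclusive = only one of the two met; inactive = neither met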;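 note: stock transfer was 7.5 nL into about 7.5 µL; 0% = neutral wells and 100% = wells with inactivated enzyme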
# RanGTP-Imp inh: inhibitors of RanGTP-importin-beta interaction, primary screen, biochemical, FRET, CFP-Ran, YFP-importin-beta, homogeneous | AID 2216 | 1.1% of 300,000 active | cell-free CFP-Ran/YFP-importin-beta FRET ratio | inhibition, % (concentration not given with the values);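 active = most replicates above 15%; inconclusive = exactly half above 15%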;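 note: 0% = DMSO wells and 100% = Ran loaded with GDP instead of GTP; wells of about 40 µL received 100 nL stock; the first replicate is given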
# Vif TR-FRET: HIV-1 Vif–A3G interaction blockers – biochemical, TR-FRET, GST-Vif 1-94, biotin-A3G peptide, dose response retest, primary screen (AID 1117319) | TR-FRET GST-Vif / biotin-A3G peptide binding; higher % means a stronger effect; test concentration not given here; strong numbers were not always called active | one-dose inhibition, %; IC50 in µM for titrated hits | 0.57% of 260,000 active;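 active = above the screen mean plus three standard deviations and confirmed in dose response; inconclusive = results disagree or hit not tested in dose response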;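 note: Vif residues 1-94 fused to GST binding biotinylated APOBEC3G peptide 110-148; 0% = full assay without inhibitor and 100% = GST in place of GST-Vif; retest series ran down from 100 µM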
# * marks the source's active call; other numbers are inactive results; ? = inconclusive; · = not tested or not shown; & = joins results of further samples.
SMILES,Calb FLC,HNF4A DNA FP,B2AR ag,LANA-H2A inh,ALR H2O2 inh,RanGTP-Imp inh,Vif TR-FRET
CSc1ccc(S(=O)(=O)NCCSC(C)(C)C)cc1,-11.1,4.4,-2.0,4.0,-4.6,0.8,0.0%
COc1ccc(C(C(=O)NC2CCCC2)N(C(=O)c2ccoc2C)c2cc(C)cc(C)c2)cc1 (centres undefined),9.4,1.5,3.1,-2.7,-3.3,7.4,19.5%
O=C(CSc1nncn1-c1ccccn1)Nc1ccccc1Cl,-2.0,4.4,-16.8,1.0,0.4,-2.0,·
COc1ccccc1C(=O)Nc1ccnn1C1CCN(C/C=C/c2ccc(F)cc2)CC1,6.7,-0.5,-0.3,-0.1,5.7,-2.5,·
CCCN(CCC)CC(O)CN(c1ccccc1)S(=O)(=O)c1ccc(C)cc1 (centres undefined),-12.6,4.3,3.3,-0.6,-16.2,3.1,6.0%
CN1CCCc2cc(C#N)c(=O)[nH]c21,31.3,-4.8,-1.6,2.5,16.5,8.1,14.1%
COc1ccc(C(=O)C(=O)c2ccc(OCCO)cc2)cc1,-11.4,0.4,6.0,3.1,7.2,0.3,·
O=C(Cn1cnc2ccccc21)c1ccc(Br)cc1,3.3,2.6,-5.8,·,·,4.8,2.2%
CO/N=C\CC(=O)Nc1ccc(Oc2ccccc2)cc1,-38.4,1.6,-3.1,-5.8,-22.3,-0.2,3.4%
COc1ccc(NC(=O)CSc2nnc3n2CCCCC3)cc1S(=O)(=O)N1CCOCC1,·,2.7,-3.9,-0.1,-14.8,·,8.2%
O=C(CSc1cn(Cc2ccccc2)c2ccccc12)NCc1ccc(F)cc1,-0.3,3.0,4.2,-0.9,16.8,2.5,-3.0%
Cc1nn(-c2ccccc2)c(N2CCCC2)c1/C=N/NC(=O)c1cc(-c2ccccn2)nc2ccccc12,-11.4,-1.0,0.8,2.0,·,-2.8,-4.8%
Cc1ccc(-c2nc(CN(C)C3CCOCC3)c(C)o2)s1,-3.8,0.9,-5.9,-2.3,-2.9,3.3,·
COc1cc(C(=O)Nc2nnc(Cc3ccccc3)s2)cc(OC)c1OC,-5.2,-1.6,22.4,-1.7,-5.5,-4.6,-4.5%
Cc1ccc(S(=O)(=O)N2CCC(C(=O)Nc3ccncc3)CC2)cc1,-3.8,0.6,-3.9,0.7,2.0,-2.9,-5.8%
CCOc1cc(CN2CCN(c3cccc(C(F)(F)F)c3)CC2)ccc1O,16.5,2.5,-3.6,-3.4,36.2,?,-0.8%
Cc1ccccc1NC(=O)CCC(=O)N/N=C/c1cc([N+](=O)[O-])ccc1O,-12.3,2.7,10.3,3.9,4.4,?,28.9%
CC(C)(O)C#Cc1ccc(CN2CCN(C3CCCC3)C(CCO)C2)cc1 (centres undefined),-3.3,-4.3,-9.4,2.0,·,-5.7,16.9%
CCN(CC)CC(=O)Nc1ccc(-c2nc3cc(NC(=O)CN(CC)CC)ccc3o2)cc1,-2.1,-0.8,4.4,-4.1,-20.4,?,12.4%
Cc1sc(NC(=O)c2cccc(N3C(=O)CCC3=O)c2)nc1-c1ccccc1,-3.5,-0.2,17.1,-6.9,-6.6,1.4,3.4%
NC(=O)COC(=O)c1ccccc1OCc1ccccc1Cl,6.3,-0.5,10.7,2.8,-3.6,·,1.6%
O=C(NCC1CCCO1)c1ccc(Br)c(S(=O)(=O)N2CCOCC2)c1 (centres undefined),·,0.0,-0.9,-3.6,·,·,1.4%
O=C(CCc1nnc(CCCCc2ccccc2)o1)NCCN1CCCCC1=O,30.1,4.0,-8.6,6.5,-17.7,2.0,2.5%
CCc1nn2c(=O)cc(CSc3nc(C)cc(=O)[nH]3)nc2s1,-3.1,4.6,-3.9,-5.5,-6.2,0.0,-1.9%
CSc1ncc(-c2ccc(Cl)cc2)[nH]1,-3.4,1.6,3.5,2.2,97.9*,1.1,·
CC1CCN(C(=S)NC(=O)c2ccccc2Br)CC1,-7.0,5.8,2.1,-2.2,5.3,0.1,·
COCCn1c(SCC(=O)Nc2cccc(C)n2)nnc1-c1ccco1,-2.3,1.7,2.8,2.1,-3.1,1.2,75.5%
COc1ccc(OC)c(/C=C2\SC(N3CCCCC3)=NC2=O)c1,2.7,-0.7,5.1,3.0,47.4,-17.6,2.6%
CNC(=O)[C@H]1O[C@@H](n2cnc3c(NCc4cccc(I)c4)nc(Cl)nc32)[C@H](O)[C@@H]1O,·,-1.2,-1.8,5.8,-34.5,·,·
CC(=O)C1=C(O)C(=O)N(c2ccc(Br)cc2)C1c1ccc(Cl)cc1 (centres undefined),4.3,2.2,3.1,-3.2,56.5,3.6,·
O=C(Nc1ccncc1)C1c2ccccc2Oc2ccccc21,-11.8,1.3,7.1,-0.7,-15.5,-1.6,-1.7%
COc1ccc(-n2c(SCC(=O)Nc3nccs3)nnc2-c2ccoc2C)cc1,5.7,3.8,-5.8,0.9,2.9,0.0,13.8%
COc1cccc2nc3c(C(=O)NCCN(C)C)cccc3cc12,·,-31.3,-9.6,·,·,·,1.8%
CC(C)CNc1nc(SCC(=O)Nc2ccccc2)nc(N2CCOCC2)n1,2.4,-9.9,-6.3,-0.1,-7.1,-0.4,-2.7%
CCCOc1c(Br)cc(C(N)=O)cc1OCC,-12.8,1.2,1.3,-1.3,·,2.4,5.0%
CCc1cc(C(=O)OC)c(NC(=O)CCCC(=O)O)s1,9.9,-5.3,6.9,5.4,2.0,1.8,1.2%
CC(=O)c1ccc(OC(C)C)c(CC(C(N)=O)C(N)=O)c1,2.2,0.5,0.9,0.9,2.6,-0.2,-1.8%
COC(=O)c1[nH]c2ccccc2c1NC(=O)c1ccccc1F,-3.2,2.6,-0.5,0.0,0.0,-0.2,6.9%
CC(C)Nc1nc(Cl)nc(NN(C)c2nc(N(C)C)nc(N(C)C)n2)n1,3.1,0.5,1.4,-0.2,-2.7,-1.1,·
CCC(C)[C@H](NC(=O)NCCC1=CCCCC1)C(=O)O (some centres undefined),-4.8,2.9,-4.9,35.2*,-5.7,1.5,0.9%
COc1ccc(NC(=O)Cc2cccs2)c(OC)c1,13.2,-2.2,1.0,6.5,-8.6,3.6,24.2%
O=S(=O)(c1ccc(Br)cc1)N1CCN(c2cc(-c3ccccc3)nc3ncnn23)CC1,9.9,-2.2,-13.8,2.7,-6.2,-0.3,-17.6%&-9.6%
CS(=O)(=O)N(CC(=O)Nc1ccc2c(c1)OCCO2)Cc1ccc(Cl)cc1,-4.9,-0.4,-0.3,-2.0,-7.7,·,3.1%
CCCC(C)c1nc(C(N)=O)c2[nH]c(=O)n(-c3ccc(OC)c(OC)c3)c2n1 (centres undefined),0.0,-1.0,10.6,3.9,-20.0,-3.1,4.7%
Cc1ccc(-n2c(N)c(C(=O)NCc3ccco3)sc2=S)cc1,12.8,-0.1,0.1,-3.8,3.5,2.1,-2.0%
COC(=O)c1sc2nc(-c3ccco3)ccc2c1N,5.8,-1.9,0.2,1.3,98.0*,5.2,?
Cc1ccsc1/C=N/n1c(-c2ccncc2)n[nH]c1=S,2.6,-0.9,3.4,1.6,1.8,3.5,-5.6%
CCOC(=O)/C(=N/Nc1ccc(Cl)cc1)S(=O)(=O)c1ccccc1,-3.1,-1.2,-4.4,1.6,-1.6,-2.9,28.4%
CC1CCC(NC(=O)c2cnccn2)CC1 (centres undefined),-3.3,-2.6,-5.7,0.7,-1.9,-3.2,-3.2%
COc1ccc(-n2nc(C(=O)NCC(=O)N3CC(C)CC(C)C3)c3ccccc3c2=O)cc1 (centres undefined),24.3,0.2,2.8,5.6,2.1,-0.8,·
O=c1[nH]c(CSc2ncc(-c3ccc(F)cc3)n2Cc2ccco2)nc2ccccc12,32.1,0.7,3.8,5.8,2.5,-5.4,4.4%
Cc1ccc(NC(=O)NC2CCCc3ccccc32)cc1 (centres undefined),-6.2,3.4,-8.3,0.1,-2.1,-9.0,·
COc1ccc(CC2(C)OC(c3ccc([N+](=O)[O-])cc3)=NN2C(C)=O)cc1 (centres undefined),10.5,1.6,-13.2,2.4,-0.2,2.2,-1.2%
COc1ccc(C2CC(=O)c3c(O)cc(O)cc3O2)c(CC=C(C)C)c1OC (centres undefined),3.7,7.8,5.6,-13.1,0.0,2.5,·
C[N+]1(CC2COC3(CCCCC3)O2)CCCCC1 (centres undefined),4.5,-0.6,-0.3,4.1,-3.8,1.5,-3.5%
CCCc1nnc(SCC(=O)N2CCCCC2)n1CCCOC,-7.7,0.2,-1.0,3.1,-9.2,-6.7,-0.1%
CCOC(=O)c1c(C)nc2sc3c(=O)n(-c4ccc(C)cc4)cnc3c2c1-c1ccc(OC)cc1,-0.6,-1.2,9.4,-2.9,0.4,-9.0,-5.7%
CC1(C(=O)O)C=CC2(CCCCC2)N1C(=O)c1ccccc1 (centres undefined),-3.2,2.0,0.9,0.3,-8.2,-2.2,31.4%
Cc1oc(-c2ccccc2F)nc1CS(=O)CC(=O)NCc1ccc2c(c1)OCO2 (centres undefined),5.2,-0.5,10.2,2.3,99.0*,0.9,?
COc1ccccc1N1CCN(/N=C/c2ccc([N+](=O)[O-])cc2)CC1,9.4,-0.4,3.0,4.4,0.1,2.6,·

# (cont.)
SMILES,Calb FLC,HNF4A DNA FP,B2AR ag,LANA-H2A inh,ALR H2O2 inh,RanGTP-Imp inh,Vif TR-FRET
Cc1ccc(NC(=S)N2CCN(S(=O)(=O)c3c(F)cccc3F)CC2)cc1C,-22.5,-3.1,-6.8,1.7,-0.7,0.9,-2.5%
CC(C)(C)c1ccc(-n2ncc3c2CCCC3NC(=O)CN2CCCC2=O)cc1 (centres undefined),-11.6,-2.3,-1.8,-71.0,-22.1,-0.4,3.7%
Cc1ccc(C(=O)Nc2ncc(C)s2)o1,-1.7,0.3,-3.2,5.2,0.0,3.6,1.6%
COc1ccc(SCC(=O)c2cc(C)c(OC(=S)N(C)C)c(C)c2)cc1,2.9,2.2,6.5,3.0,91.6*,1.0,-0.9%
COc1ccccc1NS(=O)(=O)c1ccc(Br)s1,?,12.2,5.9,1.9,·,-1.1,8.0%
COc1cccc(Nc2nc(-c3sc(N)nc3C)cs2)c1,5.1,8.4,11.2,-4.6,-4.5,?,6.5%
C=CCSC1=C(C#N)C(c2ccccc2OCC)CC(=O)N1 (centres undefined),14.1,-0.6,-7.5,2.6,7.1,7.0,-16.9%
COc1ccc(C2=NOC(C(=O)NCc3ccc(F)cc3)C2)cc1OC (centres undefined),6.8,3.5,40.0,1.4,-7.4,0.9,0.9%
COC(=O)c1cc(C#N)c(Oc2ccc(OC)cc2)nc1C,·,1.5,4.8,·,·,5.6,-2.3%
CCCCNC(=O)CCC(=O)NNc1nc2ccccc2c2nc(C)nn12,-1.2,-3.5,0.0,-6.9,-2.9,0.4,·
CN(C(=O)CSc1nnnn1-c1ccc(O)cc1)C1CCCCC1,·,1.7,7.3,3.9,-0.2,·,·
Cc1ccccc1OCCN1C(=O)NC2(CCCc3ccccc32)C1=O (centres undefined),12.4,0.5,4.5,0.8,5.4,-4.7,23.7%
CC(=O)c1c(C)[nH]c(C(=O)CN2C(=O)NC(C)(c3ccc(C)cc3)C2=O)c1C (centres undefined),4.1,-3.0,-10.4,-0.1,-15.4,-0.6,-11.3%
CCOC(=O)c1ccc2[nH]c(C)c(C)c2c1,-10.0,1.3,3.8,-1.3,97.6*,1.7,5.9%
CN(C(=O)CCc1nc2ccccc2s1)c1ccccc1,-3.5,1.9,-10.0,-1.6,-6.9,4.6,10.9%
CCCC(O)(CCC)C(=O)NNc1ccc(C)cc1,110.6*,2.6,-1.2,-2.1,69.3,0.5,12.1%
Cc1ccc(C(C)NC(=S)NC2CCCCC2)c(C)c1 (centres undefined),?,0.5,-3.4,-0.4,-6.0,3.1,1.5%
CC(CN1CCOCC1)OC(=O)c1ccccc1Br (centres undefined),-3.1,-1.2,-7.2,1.7,-16.1,-2.0,3.4%
